# Vaccinia Venus = inhibitors of vaccinia virus (Venus reporter). Vaccinia virus Venus reporter expression, fluorescence. Potency, µM (series often up to 36.5 µM), without a hit: at the top dose activity change, negative = inhibition, hits mostly inhibitors. 330,000 compounds, 0.46% hits; active means well fitted inhibition curve with a large enough effect; inconclusive means small, poorly fitted or top-dose-only effect; inactive means no such curve, though single readings can be large or run the other way; tested in A549 cells; note: nearly all actives have a fitted effect of over 30% in size; inactives centre near -10
# VACV mCherry inh = vaccinia inhibition (mCherry reporter) | Vaccinia virus mCherry reporter infection, fluorescence; about a quarter of the inactives have no number | Potency, µM (top dose mostly 36.5 µM), for inactives: at the highest dose activity change, negative = inhibition, actives largely listed as inhibitors | 310,000 compounds, 0.63% hits; active = well fitted inhibition curve with a large enough effect; inconclusive = small, poorly fitted or top-dose-only effect; inactive = no such curve, though single readings can be large or run the other way; tested in A549 cells; note: nearly all actives have a fitted effect of over 35% in size; inactives centre near -10
# Active calls of the source: *; i = inactive; ? = inconclusive; nt = no result given; [ ] = remark or other dose. % is set by controls: 0 for no effect and ±100 for the full control effect; potency is the fitted concentration of half-maximal effect. Compounds were not picked by outcome; about 0.88% have a hit in one of these screens.
SMILES,Vaccinia Venus,VACV mCherry inh
O=C(CNC(=O)c1ccccc1)NCC(O)c1ccc([N+](=O)[O-])cc1 (configuration not stated),-1.0%,i
C=CCn1cc(/C=N/NC(=O)COc2cccc3cccnc23)c2ccccc21,-27.0%,-11.2%
O=C(COC(=O)/C=C/c1cccc(C(F)(F)F)c1)NCCN1C(=O)CSC1=O,-18.3%,-16.3%
O=C(CCOc1ccccc1)N1CCN(S(=O)(=O)c2cccs2)CC1,-3.8%,nt
COc1ccc(CC(=O)NC2CC(=O)N(c3ccc4c(c3)OCCO4)C2)cc1 (configuration not stated),20.4%,24.9%
CCOC(=O)N1CCN(C(=O)CSc2ccc3nnc(CCNC(=O)c4ccc(OC)cc4)n3n2)CC1,2.7%,-22.6%
Cc1ccc(-n2c(-c3cccc(C)c3)n[nH]c2=S)cc1,-5.6%,i
COc1ccc(-n2c(Cc3cccn3C)nnc2SCC(=O)NCc2ccccc2Cl)cc1,-9.4%,i
N#Cc1ccc(S(=O)(=O)N2CCCN(c3nc4ccc(Cl)cc4s3)CC2)cc1,-13.1%,-6.3%
O=C(Cn1cc(C(=O)c2ccncc2)c(=O)c2cc(F)ccc21)Nc1ccc(Cl)cc1,-8.3%[7.34 µM],-6.3%[7.34 µM]
O=C(NCc1ccc(Cl)cc1)NCc1ccc(Cl)cc1,-12.1%,-21.6%
N/C(=N\OC(=O)Nc1ccc(Cl)c(Cl)c1)c1ncc(C(F)(F)F)cc1Cl,-11.1%,nt
O=C(O)/C=C/C(=O)Nc1ccc(OC(F)(F)Cl)cc1,-0.9%,i
COc1ccc(NC(=O)Nc2cc(C)ccc2F)cc1,-24.8%,-2.8%
COc1cccc(-c2ncc3ccccc3c2COC(=O)N2CCCCC2)c1,-20.2%,-17.0%

# Next section; the last four above are carried over.
SMILES,Vaccinia Venus,VACV mCherry inh
N/C(=N\OC(=O)Nc1ccc(Cl)c(Cl)c1)c1ncc(C(F)(F)F)cc1Cl,-11.1%,nt
O=C(O)/C=C/C(=O)Nc1ccc(OC(F)(F)Cl)cc1,-0.9%,i
COc1ccc(NC(=O)Nc2cc(C)ccc2F)cc1,-24.8%,-2.8%
COc1cccc(-c2ncc3ccccc3c2COC(=O)N2CCCCC2)c1,-20.2%,-17.0%
O=C(NC(=S)Nc1ccc(S(=O)(=O)Nc2nccs2)cc1)c1cccnc1,6.3%,2.7%
COc1ccc(CCNC(=O)CSc2ccc(-c3ccco3)nn2)cc1,3.5%,4.8%
COCCn1c(SCC(=O)c2c(-c3ccccc3)n(C)c3ccccc23)nnc1-c1ccncc1,19.6%,i
COc1ccc(S(=O)(=O)N2CCOCC2)cc1NC(=O)COc1ccc2ccc(=O)oc2c1,-10.4%,i
CCc1ccc(OCCOCC(O)CNC2CCCC2)cc1 (configuration not stated),-13.4%,?
CCN(CC)C(=O)CS(=O)CC(=O)Nc1cc(OCCOC)c(Cl)cc1Cl (configuration not stated),-6.4%,-9.8%
Cc1ccc(Cl)cc1N1CCN(C(=O)CCC(=O)O)CC1,-0.3%,-7.8%
CC(C)NC(=O)C1CC(=O)N(CCc2ccc(F)cc2)C1 (configuration not stated),3.5%,i
CCn1nc(C(=O)Nc2ccc(S(=O)(=O)Nc3ncccn3)cc2)c2ccccc2c1=O,-3.9%,2.0%
CCc1cccc(C)c1NC(=O)C(NS(=O)(=O)c1ccc2c(c1)CCC(=O)N2)c1ccccc1 (configuration not stated),-8.7%,-14.4%
Cc1cccn2c(=O)c(C=C(C#N)C#N)c(N3CCN(c4ccccc4)CC3)nc12,-9.6%,-16.9%
Cc1cc(C)c(CN2C(=O)c3ccccc3S(=O)(=O)c3ccc(C(=O)OCC4CCCO4)cc32)c(C)c1 (configuration not stated),6.6%,-2.4%
CCN1CCc2c(OCC(=O)N3CCC(C)CC3)cccc2C1=O,-10.0%,-9.5%
O=C(CCN1CCCC1=O)NC1CCCc2c1cnn2-c1ccc(F)cc1F (configuration not stated),-12.1%,-0.1%
Cc1cc(C)nc(/N=C(\N)N2CCc3ccccc32)n1,-13.0%,-6.1%
COc1ccc(-c2cc(-c3cccs3)nc3sc(C#N)c(N)c23)cc1,-0.4%,-3.7%
C=CCOc1ccc(Oc2cc(C)nc(SC)n2)nn1,-13.2%,i
O=C(CNc1cccc(S(=O)(=O)N2CCCC2)c1)Nc1ccc(C(F)(F)F)cc1,-28.9%,?
Cc1oc(-c2ccc(Cl)cc2)nc1CS(=O)CC(=O)NCc1ccccc1 (configuration not stated),-11.2%,i
C=CCc1cc(OC)c2c(c1)OCO2,10.9%,7.4%
CCc1ccc(C2N3CC4([N+](=O)[O-])CN2CC([N+](=O)[O-])(C3)C4(C)C)cc1 (configuration not stated),-10.0%,i
COCCNC(=S)N1CCOCC1,-5.3%,-17.3%
O=C(NCCCN1CCN(c2ccc(F)cc2)CC1)Nc1ccccc1Cl,-9.2%,-21.6%
Cc1cc(/C=C2\C(=N)N3N=C(C(C)C)SC3=NC2=O)c(C)n1-c1ccccc1,-7.3%,i
Cn1cc(/C=C2/SC(=O)N(c3ccccc3)C2=O)c2ccccc21,-9.0%,i
O=C(Nc1nc(-c2ccc(Br)cc2)ns1)c1ccc(F)cc1,-18.8%,-6.4%
O=C(CC1N=C2c3ccccc3N=C(SCc3ccccc3Cl)N2C1=O)NCc1cccs1 (configuration not stated),-9.9%,-17.5%
Cc1cccc(NC(=O)C2SC(=Nc3c(C)cccc3C)C(C(=O)N3CCOCC3)=C2N)c1 (configuration not stated),5.5%,-13.1%
Cc1cc(C(=O)O)c(CSCc2cc(C(=O)O)oc2C)o1,3.5%,-9.5%
Cc1ccc2nc(SC(C)C(=O)NCc3ccc4c(c3)OCO4)[nH]c2c1 (configuration not stated),-8.9%,i
CCn1cc(CN2CCC(C(=O)Nc3ccc(Oc4ccccc4F)cc3)CC2)cn1,-25.8%,i
NC(CCc1ccccc1)c1csc(Nc2cnccn2)n1 (configuration not stated),?,10µM*
Cc1ccccc1-c1cncnc1NCCN1CCOCC1,-1.0%,-1.7%
COc1ccc(-c2cc(C(=O)N/N=C/c3cccnc3)c3ccccc3n2)c(OC)c1,-0.9%,-10.7%
COc1ccc(CCN(C)CC(=O)Nc2ccc(F)c(Cl)c2)cc1OC,-11.9%,-4.3%
COc1cc2c(cc1OC)CN(C(=O)CCOc1ccccc1C)CC2,?,?
CC(=O)Oc1cccc(C(=O)Nc2ccccc2C(=O)N2CCCC2)c1,-15.5%,i
O=C(Nc1cccc2c1[nH]c1ccccc12)C(F)(F)F,-19.6%,-24.1%
COCCc1ncc(CN2CCCCC2C(=O)Nc2ccc(Oc3ccccc3)nc2)cn1 (configuration not stated),-1.1%,-14.9%
O=C(NCCc1ccccc1)C1CCC(CNS(=O)(=O)c2cccc3cccnc23)CC1 (configuration not stated),-21.2%,?
Cc1ccc(SCC(=O)NC(=O)NC(C)C)c(C)c1,2.7%,33.0%[activator]
CCCNS(=O)(=O)c1ccc(OCC(=O)NCCCOC)cc1,-8.0%,-14.6%
O=C(Nc1cccc(C(=O)O)c1)/C(=C\c1ccc2c(c1)OCO2)NC(=O)c1ccc(Br)cc1,-24.0%,-9.3%
CCC(=O)N1CCN(c2ccc(NC(=O)c3ccc4c(c3)OCO4)cc2)CC1,-23.4%,-2.9%
COc1cc2ccccc2cc1C(=O)Nc1cccnc1,-25.9%,-29.6%
CCOC(=O)C1CCCN(Cc2c(C(=O)N3CCCCC3)nc3c(C)cccn23)C1 (configuration not stated),-8.4%,i
CCCCN(C(=O)CSCC(=O)Nc1ccc(C)cc1)c1c(N)n(CCCC)c(=O)[nH]c1=O,-7.2%,-17.5%
COc1ccc(NCc2nnc(SCC(=O)NCc3ccccc3)n2-c2ccccc2OC)cc1,-26.2%,i[1.46 µM]
CCOC(=O)c1ccc(Nc2nc3ccccc3nc2NS(=O)(=O)c2ccc(Cl)cc2)cc1,?,10µM*
CC1(C)CC(=O)C(C2(O)C(=O)NC(=O)NC2=O)=C(O)C1,-2.6%,-12.7%
COc1ccc(OC)c(CCNC(=O)Cn2nc(C)c3c(C)n(-c4ccc(C)cc4)nc3c2=O)c1,?,-29.7%
CC(C)c1onc(C(=O)N2CCN(Cc3ccccc3)CC2)c1[N+](=O)[O-],-14.4%,-13.0%
CCN(C[C@H]1N[C@@](C)(C(=O)OC)[C@H]2C(=O)N(C)C(=O)[C@@H]12)C(C)=O,4.9%,-6.7%
CSc1ccccc1OCc1cc(C(=O)NC(C)Cn2cncn2)no1 (configuration not stated),-10.8%,-12.7%
N#C/C(=C\c1ccccc1[N+](=O)[O-])C(=O)NC1CCCCC1,5.2%,-12.0%
COc1cc2c(C#CCCCO)c(-c3ccc(C#N)cc3)oc(=O)c2cc1OC,-8.0%,-2.0%
C[C@@]12C(=O)N(CCO)CC(=O)N1[C@H](/C=C/c1ccccc1)[C@@H]1C(=O)N(c3ccccc3)C(=O)[C@@H]12,-9.7%,i
CCOC(=O)c1ccc(-n2c(CCC(=O)O)ccc2-c2ccc(Br)cc2)cc1,-2.3%,-1.2%
COc1ccc(Cn2nnnc2C(c2cccnc2)N2CCN(c3ccc(O)cc3)CC2)cc1 (configuration not stated),-2.1%,-18.4%
Cc1ccc(C(=O)c2no[n+]([O-])c2C(=O)c2ccc(C)cc2)cc1,-4.5%,-1.7%

# Next section
SMILES,Vaccinia Venus,VACV mCherry inh
COc1ccc(NS(=O)(=O)c2csc(C(N)=O)c2)cc1,-6.8%,-27.4%
Cc1cc(Nc2cccc(C(F)(F)F)c2)nc2ccc(NC(=O)c3cccc(Cl)c3)cc12,-22.3%,-21.5%
Cc1c(C(=O)Nc2ccc(S(=O)(=O)NCC3CCCO3)cc2)cccc1[N+](=O)[O-] (configuration not stated),-23.9%,-29.4%
O=C(C1CCCN(S(=O)(=O)c2cccnc2)C1)N1CCN(c2ccccn2)CC1 (configuration not stated),1.3%,-5.2%
COc1ccc(CC(=O)N/N=C/c2ccc(-c3ccc(F)cc3)o2)cc1OC,?,-26.0%
Fc1ccc(C2CCNCC2COc2ccc3c(c2)OCO3)cc1 (configuration not stated),-22.1%,?
CCc1ccccc1NC(=O)C(C)n1c(=O)cc(C)c2c(C)nn(-c3ccccc3)c21 (configuration not stated),6.3%,-9.6%
CCOC(=O)C1(c2ccccc2)CCN(CC(=O)c2ccc(NC(C)=O)cc2)CC1,-8.7%,-27.7%
CS(=O)(=O)N(Cc1ccc(Cl)cc1)c1ccc(C(=O)NCC2CCCO2)cc1 (configuration not stated),-10.2%,-21.6%
CC(OC(=O)c1cc(S(=O)(=O)N2CCOCC2)ccc1F)C(=O)NC1CCCCC1C (configuration not stated),-4.9%,-14.3%
CSCCC(NC(=O)c1ccc(C)o1)C(=O)O (configuration not stated),-26.2%,nt
NC(=O)C1CCN(C(=O)c2ccco2)CC1,-3.7%,-7.8%
COc1ccc2c(c1)C1=NN(/C(C)=C/C(C)=O)C(c3ccc(F)cc3)C1CC2 (configuration not stated),-5.8%,-3.5%
CC(Sc1ccccc1F)C(=O)Nc1ccc2c(c1)OCCO2 (configuration not stated),-13.1%,-2.6%
COc1cccc(N2CCN(C(=O)c3oc4ccccc4c3NC(=O)CCc3cc(OC)no3)CC2)c1,-17.9%,?
CC(=O)Nc1ccc(S(=O)(=O)N[C@@H](C)C(=O)OCC(=O)c2ccc[nH]2)cc1,-12.5%,-14.6%
CC(C)=N/N=C1/NC(=O)C(c2ccccc2)S1 (configuration not stated),-2.9%,i
CCOC(=O)CN1C(=O)CCSc2ccc(Cl)cc21,-5.3%,i
COC(=O)c1c(C)oc(C)c1S(=O)(=O)NCc1ccc(Cl)cc1Cl,-15.5%,i
OC(c1ccccc1)(c1ccccc1)c1ccn[nH]1,-3.8%,-2.1%
COc1ccccc1NC(=O)Cn1nc(Cc2cccnc2)c2ccccc2c1=O,-17.7%,-9.3%
CCOc1ccc(CCNC(=O)CCCn2nc(C)c3sc4ccccc4c3c2=O)cc1OCC,-10.2%,-17.9%
Cc1noc(C)c1C(=O)Nc1ccc(F)cc1,-9.8%,-8.9%
C=C(C)C1CC=C(C)/C(=N/NC(=O)CNc2ccc(C)cc2C)C1 (configuration not stated),-7.5%,i
CCOc1ccc(NC(=O)C23CC4CC(C2)CC(c2ccccc2)(C4)C3)cc1,-13.7%,nt
CC(=O)Nc1ccc(Nc2nc(C)c([N+](=O)[O-])c(Nc3ccccc3)n2)cc1,?,-21.2%
Cn1nc(C(=O)N2CCN(c3ccccc3)CC2)c2c1-c1ccccc1SC2,-0.4%,-6.1%
COc1cccc(C(=O)Nn2cnnc2)c1,-3.2%,i
CN(CCNC(=O)c1cn(C)c2ccc(S(=O)(=O)N(C)C)cc2c1=O)CCc1ccccc1,-11.1%,-11.2%

# Structural class, those above containing an NH in an aromatic ring
SMILES,Vaccinia Venus,VACV mCherry inh
Cc1ccc(-n2c(-c3cccc(C)c3)n[nH]c2=S)cc1,-5.6%,i
Cc1ccc2nc(SC(C)C(=O)NCc3ccc4c(c3)OCO4)[nH]c2c1 (configuration not stated),-8.9%,i
O=C(Nc1cccc2c1[nH]c1ccccc12)C(F)(F)F,-19.6%,-24.1%
CCCCN(C(=O)CSCC(=O)Nc1ccc(C)cc1)c1c(N)n(CCCC)c(=O)[nH]c1=O,-7.2%,-17.5%
CC(=O)Nc1ccc(S(=O)(=O)N[C@@H](C)C(=O)OCC(=O)c2ccc[nH]2)cc1,-12.5%,-14.6%
OC(c1ccccc1)(c1ccccc1)c1ccn[nH]1,-3.8%,-2.1%
